Compound activity from PubChem.
gsp antag: antagonists of gsp mutant (McCune-Albright syndrome); Potency, µM (series often up to 76.9 µM), inactives show at the top dose activity change, negative = inhibition, actives largely listed as inhibitors; 0.4% of 340,000 active; gsp-mutant cells, cAMP HTRF, 30 min; control for the full effect not named in the record; active = falling curve of any shape with a large fitted effect; inconclusive = falling curve, mostly with a smaller effect; inactive = flat or rising curve; cell line not stated here;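 further: intracellular cAMP measured with PDE inhibitor Ro 20-1724 present during compound exposure; potency means the concentration at half of the fitted maximal effect; on the % scale 0 is the no-effect control and ±100 the full control effect; nearly all actives have a fitted effect of over 65% in size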
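HTRF cAMP read-out (cAMP-d2 plus anti-cAMP antibody-K in lysis buffer, 30 min RT). Before lysis, cells are exposed to compounds with […] for 30 min at 37C in DPBS containing Ca/Mg, BSA and Tween 20.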
ClpP mod: qHTS Assay for Activators of ClpP; AID 651965, 2013; ATP-dependent Clp protease proteolytic subunit (Bacillus subtilis (strain 168)), P80244; Potency, µM (top dose mostly 57.5 µM), for the others: top-dose activity change, negative = active; purified B. subtilis ClpP, FRET peptide cleavage, 20 min; 1.9% of 340,000 active; active = well fitted falling curve with a large enough effect; inconclusive = small, poorly fitted or top-dose-only effect; inactive = no such curve, though single readings can be large or run the other way; further: potency means the concentration at half of the fitted maximal effect; the source files actives as falling curves though it sought activators and does not explain the sign; nearly all actives have a fitted effect of over 65% in size; many hits overshoot -100%
Target sequence (P80244 whole entry, looked up): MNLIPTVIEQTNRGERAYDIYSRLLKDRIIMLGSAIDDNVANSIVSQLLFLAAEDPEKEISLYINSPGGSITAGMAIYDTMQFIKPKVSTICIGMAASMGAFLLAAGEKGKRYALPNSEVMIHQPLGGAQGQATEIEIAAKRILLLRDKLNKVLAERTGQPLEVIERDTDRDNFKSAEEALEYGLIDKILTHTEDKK
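ClpP 10 microg/mL final, pH 8 Tris/KCl buffer with BSA, glycerol, Tween-20; compound pinned in; FRET-FV substrate; RT 20 min; Ex320/Em430; ΔFRET vs ADEP 5.8 microM, DMSO, no enzyme.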
D2 agonist: human D2 receptor agonism in beta-arrestin assay. DiscoveRx PathHunter D2 beta-arrestin, luminescence, 90 min; 100% = 57 uM dopamine signal. activation, % (concentration not given with the values). 0.084% of 360,000 active. AID 624465; in the data active = activation above about 40%; inconclusive = about 15% to 40%; inactive = below about 15%; further: compound concentration not given in the record; the text of the record calls up to 30% inactive
Target sequence (P14416 whole entry, looked up): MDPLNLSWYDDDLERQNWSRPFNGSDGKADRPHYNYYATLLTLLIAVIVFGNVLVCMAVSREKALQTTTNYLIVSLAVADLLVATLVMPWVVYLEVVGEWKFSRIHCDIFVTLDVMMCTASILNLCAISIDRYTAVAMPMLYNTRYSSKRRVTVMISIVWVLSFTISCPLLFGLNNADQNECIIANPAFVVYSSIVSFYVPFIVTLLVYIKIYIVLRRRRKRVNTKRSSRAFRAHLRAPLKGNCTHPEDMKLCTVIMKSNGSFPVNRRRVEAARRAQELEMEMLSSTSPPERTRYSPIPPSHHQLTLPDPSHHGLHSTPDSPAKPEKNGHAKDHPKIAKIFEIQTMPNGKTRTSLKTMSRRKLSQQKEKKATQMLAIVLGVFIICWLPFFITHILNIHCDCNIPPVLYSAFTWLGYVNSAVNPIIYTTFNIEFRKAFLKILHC
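Agonist mode: compounds alone added to overnight-plated D2 PathHunter cells for 90 min at 37 C, with 57 uM final dopamine (EC100) defining full response. Beta-arrestin recruitment detected by chemiluminescent reagent, read after 1 h at ambient temperature.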
PINK1 expr mod: modulators of PINK1 expression | Potency, µM (highest dose often 76.6 µM), without a hit: top-dose activation (PINK1 increase), most hits filed as activators | AID 624263 | 0.2% of 410,000 active | PINK1 immunofluorescence, high-content cytometry, 24 h; active = well fitted activation curve with a large enough effect; inconclusive = small, poorly fitted or top-dose-only effect; inactive = flat fitted curve, though single readings scatter; cell line not stated here;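 further: potency means the concentration at half of the fitted maximal effect; % of control where 0% means no effect; nearly all actives have a fitted effect of over 65% in size; a mitochondrial uncoupler was the plate control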
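Readout is PINK1 immunofluorescence, quantified alongside mitochondrial, cell and nuclear markers by laser-scanning microplate cytometry. Cells from a stable line were exposed to compound titrations (5 concentrations) for 24 hours, with CCCP controls.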
gsp ag: activates gsp, the McCune-Albright syndrome mutation; Potency, µM (doses to about 76.9 µM), for the others: at the highest dose activation (cAMP increase), actives largely listed as activators; AID 624287; gsp mutant cells, cAMP HTRF, 30 min; control for the full effect not named in the record; 0.13% of 340,000 active; active = well fitted activation curve with a large enough effect; inconclusive = small, poorly fitted or top-dose-only effect, or another doubt; inactive = no such curve, though single readings can be large or run the other way; cell line not stated here;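 further: phosphodiesterase inhibitor Ro 20-1724 added with compounds to block cAMP breakdown; potency means the concentration at half of the fitted maximal effect; nearly all actives have a fitted effect of over 60% in size; about a fifth of the inactives were tested at one dose only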
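Cells stably selected in G418 were plated at 2000/well, grown 16-24 hr, then given compounds in DMSO with the PDE inhibitor […] (300 uM solution added) for 30 min at 37C; cAMP was read by HTRF.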
Menin MLL FP FL: displaces fluorescein MLL peptide from human menin | Fluorescence polarization, fluorescein-MLL peptide displacement from menin | FP activity change, % at 61.4 µM | 290,000 tested, under 10 active; inconclusive = falling polarisation curve, or a change in total fluorescence; inactive = total fluorescence flat and polarisation flat or rising; no compound was filed as active; the % refers to the polarisation; negative = inhibition;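 further: % of control where 0% means no effect; inhibitors lower the polarisation; unlabelled MLL peptide was the positive control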
Sfp PPTase inh: blocks B. subtilis Sfp PPTase activity; AID 1490; Potency, µM, for inactives: max response, negative = inhibition, hits mostly inhibitors; Q9F4F7; 3.5% of 310,000 active; Biochemical Sfp PPTase activity, qHTS; active means well fitted inhibition curve with a large enough effect; inconclusive means small, poorly fitted or top-dose-only effect, or another doubt; inactive means no such curve, though single readings can be large or run the other way;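 further: the enzyme is Sfp with the accession as filed and its product quenches rhodamine fluorescence; potency means the concentration at half of the fitted maximal effect; 0% = enzyme reaction without inhibitor and -100% = no enzyme wells; top concentration of the series not given in the record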
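With Hepes-Na pH 7.6 buffer containing 10 mM MgCl2, Sfp (15 nM) modified BHQ-2-YbbR (12.5 uM) using rhodamine-CoA (5 uM). Two reads 30 minutes apart at 525/598 nm yielded each well's rate.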
* marks the source's active call; other numbers are inactive results; ? = inconclusive; / = not tested or not shown; [ ] = remark or other dose.

SMILES | gsp antag | ClpP mod | D2 agonist | PINK1 expr mod | gsp ag | Menin MLL FP FL | Sfp PPTase inh
O=C(C1CCC1)N1CCc2cc(S(=O)(=O)NCc3ccccn3)ccc21 | -7.5% | -2.0% | 0.6 | / | -89.5%[inhibitor] | 6.3 | 13.1%
COc1ccc(S(=O)(=O)Nc2ccc(C(F)(F)F)cc2)cc1OC | 9.7% | -0.6% | -1.5 | 2.5% | 0.2% | -0.9 | 17.7%
O=C(CCC1CCCCC1)NCCN1C2=NC[C@@H](Cc3ccccc3)N2C[C@H]1Cc1ccc(O)cc1 | -9.3% | -4.0% | -3.9 | -1.1% | 2.0% | -1.8 | -17.6%
N#Cc1c2n(c3c(=S)nc[nH]c13)CCCCC2 | -1.9%[15.4 µM] | -0.7% | -1.8 | -1.0% | ? | 0.8 | -51.5%
CC1CCCCC12NC(=O)N(CC(=O)Nc1ccccc1-c1ccccc1)C2=O (stereo not drawn) | 3.5% | / | -1.9 | -0.7% | 6.5%[15.4 µM] | 0.4 | -14.9%
Cc1ccnc2nc(C(=O)Nc3nccs3)nn12 | -5.0% | 1.0% | -5.4 | 0.0% | -59.9%[inhibitor] | -0.4 | -11.7%
CN(C)Cc1ccccc1-c1cc(NCc2cccs2)ncn1 | / | / | / | 0.2% | / | 3.0 | 5.4%
COC(=O)C1=C(C)NC(C)=C(C(=O)OC)C1c1ccccc1OCc1c(C)no[n+]1[O-] | 4.3% | -21.3% | -0.1 | 0.4%[38.3 µM] | -1.5% | 1.9 | 6.0%
CCOC(=O)C(NC(C)=O)(N1CCc2ccccc2C1)C(F)(F)F (stereo not drawn) | 11.4% | 1.7% | 0.6 | -0.1% | -1.9% | 7.2 | 9.1%
Cc1ccc(OCC(=O)N/N=C/c2cn(Cc3ccccc3)c3ccccc23)cc1 | ? | 14.9% | -6.0 | 5.3% | -57.7%[inhibitor] | 2.9 | ?
COc1ccc(S(=O)(=O)Nc2ccccc2SC)cc1C | -22.6% | 1.4% | -0.8 | -2.3% | 10.1% | 17.6 | 0.8%
COc1ccc(NC2CCCN(C(=O)c3c(C)noc3C)C2)cc1 (stereo not drawn) | 6.5% | -3.7% | -4.2 | -0.4% | 0.3% | -3.9 | 9.9%
Cc1ccc(S(=O)(=O)N(C)c2ccc(OCC(=O)OCc3ccc(C#N)cc3)cc2)cc1 | -5.7% | -0.2% | -0.2 | -2.4% | -7.5% | / | /
CC1CCCC(NC(=S)NC(=O)c2cncc(Br)c2)C1C (stereo not drawn) | 12.8% | -0.3% | 0.2 | -1.0% | 6.1% | 2.6 | 7.2%
CN1C(=O)N(CC(=O)Nc2ccc3c(c2)OCO3)C(=O)C12CCCCC2 | / | -0.8% | -1.0 | 0.7% | -13.1% | / | /
CCOC(=O)c1c(NC(=O)COC(=O)c2ccncc2)sc(C)c1C | -0.2% | / | -7.3 | 0.3% | 5.1%[15.4 µM] | 3.0 | 79.4µM*
Cc1ccc(Nc2ccc([N+](=O)[O-])cn2)cc1Cl | 7.9% | -4.8% | 3.5 | 1.7% | 10.1%[15.4 µM] | 0.3 | 10.5%
Cc1ccc(CC(=O)NCc2ccc(Cl)cc2)cc1 | -4.5% | -1.4% | -2.2 | 10.7% | 28.7% | 2.5 | 11.1%
CC(C)(C)NC(=O)Nc1ccc(Br)cc1 | -14.2% | 0.6% | -4.1 | 7.3% | ? | 1.1 | 6.9%
CCOC(=O)C(=O)c1c(-c2ccc(C)cc2)nc2ccccn12 | 13.1% | 2.5% | -6.4 | 3.0% | ? | 2.6 | -1.6%
CCSc1ccc2cc(OC)ccc2[n+]1CC | 0.8% | / | 0.2 | 0.4% | -2.8%[15.4 µM] | -3.4 | ?
CC(C)(C)C(=O)N1CCC[C@@]1(CO)C(=O)O | -0.2% | -0.7% | -0.6 | 2.7% | -22.8% | 0.2 | -4.0%
O=C(NC1CCCC1)C(c1cccnc1)N(C(=O)c1csnn1)C1CCCC1 (stereo not drawn) | 2.7% | -2.8% | 0.2 | 1.3% | -12.3% | -0.2 | 12.2%
Cc1ccc(Oc2ccccc2/C=N/O)cc1 | 6.0% | -0.4% | -2.3 | 4.3% | -30.4%[inhibitor] | 6.5 | 15.5%
CC1CCCCN1C(=O)COC(=O)c1cc(-c2cccs2)nn1-c1ccccc1 (stereo not drawn) | -25.2% | -5.7% | 1.5 | 6.8% | -4.0% | / | /
COC(=O)[C@@H](Cc1c[nH]c2ccccc12)NC(=O)c1cc(=O)[nH]c2ccccc12 | -3.0% | / | 0.2 | -0.5% | -2.8%[15.4 µM] | 4.2 | 5.4%
CSCCC(NC(=O)c1cccc(C)c1)C(=O)NNC(=O)c1cccs1 (stereo not drawn) | -3.4% | 0.3% | -2.9 | 2.5% | 27.8% | / | /
COc1ccc(C(=O)NNC2=C(C(=O)C(F)(F)F)CCC2)cc1 | -8.4% | / | -0.1 | 5.1% | -59.0%[inhibitor] | 1.9 | 21.1%
CC1CC(C)CN(C(=O)c2cccc(S(=O)(=O)N3c4ccccc4CC3C)c2)C1 (stereo not drawn) | -15.6% | / | 1.5 | 6.5% | 27.2%[15.4 µM] | / | /
Cc1cccn2c(=O)c3cc(C(=O)NCCN4CCOCC4)c(=N)n(CCN4CCOCC4)c3nc12 | 3.1% | / | -6.9 | 0.0% | 28.0%[15.4 µM] | / | -9.6%
O=C(Cc1cccc2ccccc12)N/N=C/c1ccc(OC(=O)/C=C/c2ccco2)cc1 | -16.9% | -3.2% | 5.3 | 1.0% | 15.2% | 7.0 | -9.7%
COc1ccc(C2CC(=O)c3cnc(NC(=O)c4ccco4)nc3C2)cc1 (stereo not drawn) | 2.1% | 0.3% | -6.7 | -1.0% | 20.0%[15.4 µM] | / | 9.4%
Cc1ccc(S(=O)(=O)N2CCCCC2)cc1NC(=O)CSc1nnnn1C | 6.5% | / | 4.5 | 5.8% | 23.5% | 3.3 | 2.9%
c1ccc(-c2ccc(-c3cn4c(n3)CCC4)cc2)cc1 | -14.1% | 2.82µM* | -0.8 | 0.9% | 21.8% | 0.6 | -19.4%
COc1ccc(OC)c2sc(NC(=O)CCS(=O)(=O)c3ccccc3)nc12 | -11.2% | 15.7% | -2.8 | -0.3% | ? | / | /
Cn1c(NC(=O)c2ccccc2)nc2ccccc21 | 7.6% | 0.1% | -7.0 | -0.5% | -19.9% | -2.9 | 14.4%
CCN(CC)C(=O)c1sc(NC(=O)c2ccco2)c(C#N)c1C | -7.0% | -2.8% | -0.2 | 0.0%[38.3 µM] | -11.6% | ? | 9.1%
CCn1c(SCC(=O)c2ccc(O)c(O)c2)nnc1-c1ccccc1 | -22.8% | 0.5% | 0.6 | -1.2% | 9.0% | -5.7 | -17.7%
COc1ccc(-c2n[nH]c(C)c2-c2ccccc2OC)c(O)c1 | -13.9% | / | -3.7 | 1.5% | 4.2%[15.4 µM] | -3.5 | 4.0%
CC(C)(C)NC(=O)C(=O)NNC(=O)c1cccc([N+](=O)[O-])c1 | / | / | -1.3 | 1.8% | -23.1%[15.4 µM] | -1.2 | -12.9%

Sfp PPTase inh, entries above that show a hit.
SMILES | gsp antag | D2 agonist | PINK1 expr mod | gsp ag | Menin MLL FP FL | Sfp PPTase inh
CCOC(=O)c1c(NC(=O)COC(=O)c2ccncc2)sc(C)c1C | -0.2% | -7.3 | 0.3% | 5.1%[15.4 µM] | 3.0 | 79.4µM*

Following part.
SMILES | gsp antag | ClpP mod | D2 agonist | PINK1 expr mod | gsp ag | Menin MLL FP FL | Sfp PPTase inh
COCCNc1nc2c(-c3cccc(C(F)(F)F)c3)nnn2c2ccccc12 | 18.5% | 0.9% | -4.2 | -0.2% | -4.4%[15.4 µM] | 0.3 | 10.5%
CS(=O)(=O)c1ccc2nc(NC(=O)c3cccs3)sc2c1 | ? | -3.9% | -2.1 | 1.0% | ? | 0.6 | 24.5%
CCN(CC)S(=O)(=O)c1ccc2c(c1)nc(SCC(=O)N1CCOCC1)n2-c1ccccc1OC | -5.9% | -0.8% | -4.3 | -0.4% | 11.8% | 4.1 | -11.9%
CCOc1ccc(-c2nc(N)ncc2-c2ccccc2)c(O)c1 | -16.8% | -0.9% | -0.5 | 3.4% | 11.2% | 2.5 | -8.1%
Cn1c(=O)c2c(nc(N/N=C/c3cccnc3)n2Cc2ccc(F)cc2)n(C)c1=O | -0.4% | / | -0.7 | -0.6% | 0.9%[15.4 µM] | -2.3 | -6.1%
CC(C)CCNC(=O)c1ccc2nc[nH]c2c1 | 3.0% | 0.9% | -4.4 | -0.5% | -19.4% | -5.6 | 20.9%
N#Cc1ccc(CSc2nnc(-c3cccnc3)o2)cc1 | 3.4% | 0.2% | -3.7 | 0.6% | 13.4% | 0.9 | 10.8%
O=S(=O)(NC1CCCC1)c1cccc(S(=O)(=O)N2CCC(n3nnc4ccccc43)CC2)c1 | -15.0% | -0.7% | -2.0 | -3.3% | -53.3%[inhibitor] | -1.0 | -8.5%
O=C(CCCC(=O)N1CCCC1)N1CCCC1 | 22.7% | -2.0% | -1.9 | 2.4% | -5.9%[15.4 µM] | -2.6 | 9.7%
CC1CC(C)(C)NC(=O)O1 (stereo not drawn) | 11.2% | -0.9% | -2.1 | 1.3% | ? | -0.7 | 5.4%
CCN1CCN(C(c2cccc(OC)c2)c2sc3nc(C)nn3c2O)CC1 (stereo not drawn) | -15.1% | -3.6% | -0.9 | -1.6% | 1.4% | 4.3 | 2.8%
CC(C)Oc1ccc(C2CC(=O)N(Nc3ccc([N+](=O)[O-])cc3[N+](=O)[O-])C2=O)cc1 (stereo not drawn) | ? | 1.5% | -9.0 | 0.5% | -59.0%[inhibitor] | 4.8 | 3.0%
O=C(c1ccccc1)C1CC1c1ccccc1 (stereo not drawn) | / | -11.0% | -8.1 | 2.0% | 14.7% | / | /
O=C(COc1ccc(/C=N/NS(=O)(=O)c2ccccc2)cc1)Nc1ccc(F)cc1 | -3.2% | -1.4% | 0.5 | -0.6% | 8.0% | 0.0 | 8.5%
CC(C)c1ccc(NC(=O)COc2ccc(F)cc2C(=O)c2cnn(-c3ccccc3)c2)cc1 | -8.7% | -0.6% | 0.0 | 5.7% | -35.6%[inhibitor] | 0.4 | 9.2%
